HIV TAR-Tat: TAR RNA-Tat peptide displacers, HIV-1, primary screen, biochemical, FRET, FAM/TAMRA-labeled Tat. HIV-1 TAR RNA, Tat peptide displacement FRET; stronger effect = higher value. z-score (test concentration not listed). hit rate 0.6% among 100,000. AID 1259389, 2018;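 further: score is relative to mean and SD of negative controls; some compounds called inactive have numbers as strong as hits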
CDC25B CDK2 inh: primary biochemical HTRF screen for blockers of M-phase inducer phosphatase 2 binding to CDK2/cyclin A. HTRF CDC25B-CDK2/CyclinA binding, anti-His/anti-Flag; stronger effect = higher value. z-score (no concentration beside the values). hit rate 0.72% among 94,000;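 further: score is relative to mean and SD of negative controls; strong numbers were not always called active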
Starred values were filed as active, the others as inactive; / = no result given.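 How the source made its calls: active means z-score from 3 up in half or more of its runs; inactive means the rest.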

SMILES | HIV TAR-Tat | CDC25B CDK2 inh
CCn1ccnc1C(O)c1ccc(OC)cc1 (stereo not drawn) | 2.1 | -1
O=C(Nc1ccc2c(c1)OCCO2)c1cccn1-c1nnc(N2CCCCC2)s1 | 0.27 | /
O=C1C2N=NN(Cc3cccc(Cl)c3)C2C(=O)N1c1ccc(F)cc1 (stereo not drawn) | -0.56 | 1.4
CC(C)C1CC(=O)C=C2CCCCC21 (stereo not drawn) | 1.7 | -0.51
CCC(=O)N1CCc2cc(Br)cc(S(=O)(=O)CCC(=O)NC3CCCC3)c21 | / | 0.19
CCOc1ccc2c(c1)C(=O)C(=O)N2CCN(CC)CC | 0.72 | -1.2
Cc1cc(-c2nnc(SCC(=O)c3ccc4c(c3)OCCO4)o2)no1 | -0.72 | -5.3
CCOC(=O)C1=C(C)N=C2SCCC(=O)N2C1c1ccc(F)cc1 (stereo not drawn) | 9.7 | -2
CC(C)c1ccc(-n2nnc(-c3nc(-c4ccncc4)no3)c2N)cc1 | 0.18 | /
CCOc1ccccc1OCc1nn2c(-c3cccc(Cl)c3)nnc2s1 | -0.02 | -1.3
CCSc1ncc(Cl)c(C(=O)Nc2sc3c(c2C(N)=O)CCCC3)n1 | -6.8 | -1.5
O=C1c2ccccc2C(O)(Cc2ccccc2)N1Cc1cccs1 (stereo not drawn) | / | 0.19
O=C(c1ccccc1)c1ccc2nc(NCc3ccco3)c3nncn3c2c1 | -1.6 | /
N#CCc1ccc(NC(=O)C2=CCCCC2C(=O)O)cc1 (stereo not drawn) | / | -1.9
Cc1ccc(CNS(=O)(=O)c2ccc3c(c2)C(C2CCCC2)C(=O)N3)cc1 (stereo not drawn) | -1.6 | /
Cc1nn(CC(=O)NCCC(C)C)c(=O)c2cc3ccccc3n12 | 1.5 | -0.78
COC(=O)c1cc(=O)c2cccc(OC)c2[nH]1 | / | 0.41
CN1C(C(=O)Nc2ccc3c(c2)OCO3)=CC(c2ccco2)=NS1(=O)=O | 2.5 | -1.5
O=C(CSc1nc(-c2ccc3c(c2)OCO3)nc2cc(=O)[nH]n12)NCCCc1ccccc1 | 2.5 | /
O=C(O)C1=CC(c2ccccc2)n2ncnc2N1 (stereo not drawn) | 0.96 | -1.7
Cc1cccc(C2CC(=O)c3cnc4c(-c5ccc(F)cc5)c(C)nn4c3C2)c1 (stereo not drawn) | -0.55 | -0.54
COc1cccc(CNCc2ccc(OC)c3ccccc23)c1OC | 1.2 | -0.24
CCN1CCCC1CN1CNC(=S)NC1 (stereo not drawn) | / | -1.8
Cc1nn(-c2ccccc2)c2c1N(C(=O)CCC(=O)N1CCOCC1)CCS2 | 1.1 | /
Cc1ccc(Nc2c(-c3ccc(Cl)cc3)c(=O)c2=O)c(Br)c1 | 0.31 | /
New compounds follow.
SMILES | HIV TAR-Tat | CDC25B CDK2 inh
Cc1ccc(Nc2nc(N(C)C)nc3c2cnn3C)cc1C | 0.57 | /
Cc1ccccc1OCc1nc(C#N)c(NC(C)c2ccccc2)o1 (stereo not drawn) | 0.04 | 0.35
COc1ccc(C2Nc3ccccc3S(=O)(=O)N2Cc2ccccc2)cc1 (stereo not drawn) | / | 0.52
COc1ccc(-c2nc3c(c(=O)[nH]2)Cc2cc(Br)cc(OC)c2O3)cc1OC | 13* | -0.88
c1ccc(-c2c3ssnc-3c3ccccc23)cc1 | / | 17*
CCc1nn(CC(=O)NC(C)CC)c(=O)c2cc3sccc3n12 (stereo not drawn) | 2.4 | -1.6
O=C(c1cc(NS(=O)(=O)c2ccc(F)cc2)ccn1)N1CCN(C(=O)c2ccco2)CC1 | -0.4 | /
Cn1ncc2c(Nc3cccc(Cl)c3)nc(N3CCCCC3)nc21 | 1.1 | /
COc1ccc(CNc2nc3c(S(=O)(=O)c4cccc(Cl)c4)nnn3c3ccsc23)cc1 | 0.21 | /
COC(=O)c1[nH]c2ccc(F)cc2c1-n1cccc1 | -0.21 | -0.65
Cc1ccc(C2c3c(oc4cc(C)cc(C)c4c3=O)C(=O)N2CCCOC(C)C)cc1 (stereo not drawn) | 1.1 | -0.2
O=C(c1ccc2c(c1)OCO2)N1CCN(c2nc3cc(Br)ccc3n3cccc23)CC1 | -1.4 | -2
CCOC(=O)C1CCN(S(=O)(=O)c2c(C)nc3sc(C)c(C)n3c2=O)CC1 | -0.43 | /
COc1ccc(C(=O)CSc2nc(-c3ccccn3)nc(C)c2Cl)cc1 | / | -1.7
CSc1ccc(C2c3c(-c4ccccc4O)n[nH]c3C(=O)N2CCCOC(C)C)cc1 (stereo not drawn) | 0.74 | 0.71
CSc1ccccc1NC(=O)Cn1cnc([N+](=O)[O-])n1 | 0.28 | 0.88
O=C(Nc1ccc(F)cc1F)c1ccc(Cn2nc(N3CCN(c4ccccc4)CC3)ccc2=O)o1 | 0.95 | /
Cc1ccc(-c2coc3cc4oc(=O)c5ccccc5c4cc23)cc1 | 2.1 | -0.17
COc1ccc(OC)c(C2=NS(=O)(=O)N(C)C(C(=O)N3CCCCC3)=C2)c1 | 1.7 | -2.1
CCC1CCCCN1C(=O)c1nn2c(c1Br)NC(c1cccs1)CC2C(F)(F)F (stereo not drawn) | 2.7 | -0.15
CCCc1cc(=O)n2nc(N(C)CC(=O)Nc3ccccc3Br)sc2n1 | 1.7 | 0.09
COc1cc(NC(=O)Nc2nnc(N3CCCC3)s2)cc(OC)c1 | 0.38 | -1.1
c1csc(C2CC(C3SCCS3)CS2)c1 (stereo not drawn) | / | -2.1
CCCCC12CN3CC(C)(CN(C1)C3c1ccc(Cl)cc1)C2=O (stereo not drawn) | -1.6 | -2.9
CCSC1=N/C(=C\c2cc3c(cc2Cl)OCO3)C(=O)S1 | 0.7 | -0.69

Ordered by heavy-atom count (high to low): 4 of the compounds above
SMILES | HIV TAR-Tat | CDC25B CDK2 inh
CCOC(=O)C1CCN(S(=O)(=O)c2c(C)nc3sc(C)c(C)n3c2=O)CC1 | -0.43 | /
COc1ccc(C(=O)CSc2nc(-c3ccccn3)nc(C)c2Cl)cc1 | / | -1.7
Cc1ccc(Nc2nc(N(C)C)nc3c2cnn3C)cc1C | 0.57 | /
CSc1ccccc1NC(=O)Cn1cnc([N+](=O)[O-])n1 | 0.28 | 0.88

Going on with the list:
SMILES | HIV TAR-Tat | CDC25B CDK2 inh
COc1ccc(-c2noc(-c3cccc(F)c3)n2)cc1 | -0.29 | -0.53
CCN1CCN(c2cc(-c3ccccc3)nc(C)n2)CC1 | 0.39 | -1.4
CSc1ccc2nnc(-c3ccccc3)n2n1 | / | -2.1
Cc1nc2sc3ccccc3n2c(=O)c1S(=O)(=O)NCc1ccccc1 | 0.89 | -1.7
COc1cccc(C2C(N3C(=O)c4ccccc4C3=O)C(=O)N2c2ccc(Br)cc2)c1 (stereo not drawn) | / | -0.59
CCCCNc1nc(Nc2cccc(Cl)c2)c2cnn(C)c2n1 | 0.24 | /
COC(=O)CN1C(=O)C(O)(CC(=O)c2ccc(F)cc2)c2ccccc21 (stereo not drawn) | 0.74 | -0.01
CCN(CC)c1c(S(=O)(=O)c2ccc(C)cc2)cnc2ccc(C)cc12 | 0.27 | 0.48
Cn1nnnc1SCCNCc1ccc(-c2ccc(Cl)cc2)o1 | 1.2 | -0.92
Cn1c(CN2CCCC2)nc2cc(NS(C)(=O)=O)ccc21 | -2 | 0.02
Cc1nc2ccccc2c2c1C(=O)N(c1ccc(F)cc1)C2=O | 0.8 | -1.9
Cn1cnnc1SCC(=O)N1c2ccccc2Sc2ccccc21 | 0.95 | 0
CCC(C(=O)N1CCN(c2ncccn2)CC1)n1ccc2cc(S(=O)(=O)N3CCCCC3)ccc21 (stereo not drawn) | -0.18 | /
COc1ccc(OC)c(C2=NOC(C(=O)N3CCCC3)C2)c1 (stereo not drawn) | -0.06 | -0.16
CN1C(=O)NC(c2ccc(F)cc2)C(C(=O)c2cccs2)C1(O)C(F)(F)F (stereo not drawn) | / | -2.1
Cc1nc2ccccn2c(=O)c1NC(=O)c1ccc(C(C)(C)C)cc1 | 0.4 | /
O=C(CSc1ncnc2c1oc1ccccc12)N1CCCCCC1 | / | -0.83
O=C1CCc2cc(S(=O)(=O)Nc3ccc(Cl)cc3)cc3c2N1CC3 | 1.3 | /
COc1cc(-c2nc3ccc(Br)cc3c(=O)o2)ccc1OC(C)=O | / | 0.82
COC(=O)C1C(=O)C2=C(CC1C)NC(C)=C(C(=O)OC1CCCC1)C2c1ccc(OC)c(OC)c1 (stereo not drawn) | 0.59 | -0.62
CC(=O)NC1=NN(C(C)=O)C(C)(c2ccc(C)o2)S1 (stereo not drawn) | / | -0.54
CCOc1ccc(NS(=O)(=O)c2c(C)nc3sc(C)c(C)n3c2=O)cc1 | 1.1 | /
Cn1cnc(S(=O)(=O)N2CCCC(C(=O)Nc3ccc(F)c(Cl)c3)C2)c1 (stereo not drawn) | 1.1 | /
CC(=O)Nc1nc2cc(NS(=O)(=O)c3cc(F)ccc3F)ccc2s1 | 2 | /
Cc1ccc(Cc2cnc(NC(=O)c3cccc([N+](=O)[O-])c3)s2)cc1 | / | -0.81
Following part.
SMILES | HIV TAR-Tat | CDC25B CDK2 inh
N#Cc1nc(COc2ccc(F)cc2)oc1N1CCC(Cc2ccccc2)CC1 | / | -0.09
Cc1ccc2occ(CC(=O)Nc3sc4c(c3C(N)=O)CCCC4)c2c1 | 1.2 | -0.36
Cc1ccc(S(=O)(=O)c2nc(-c3cccs3)oc2N2CCC(C)CC2)cc1 | 0.93 | -0.94
C[C@]12CCC(=O)C=C1CC[C@@H]1[C@@H]2C(=O)C[C@@]2(C)[C@H]1CC[C@]2(O)C(=O)CO | 1.2 | -1.2
CC(=O)[C@@]1(O)CCC2C3CCC4=CC(=O)CC[C@]4(C)C3CC[C@@]21C (stereo partly drawn) | -0.72 | /
CSCCn1c(-c2ccccc2)cc(C(=O)Nc2ccc3c(c2)OCCO3)c1C | / | -0.64
CCc1nn2c(=O)cc(CSc3nc4ccccc4s3)nc2s1 | -0.55 | -0.62
Cc1ccc(CNc2nc(N)c([N+](=O)[O-])c(NCC3CCCO3)n2)cc1 (stereo not drawn) | 0.12 | /
CC1(C)CC(=O)c2cc(C#N)c(SCc3ccccc3)nc2C1 | -0.34 | 0.74
Cc1ccc(S(=O)(=O)N2CCSC2c2cccc(Cl)c2)cc1 (stereo not drawn) | -0.5 | -0.65
Cc1ccsc1CCNC(=O)CCc1nnc2ccc(N3CCCCC3)nn12 | 0.67 | /
COc1ccc(-c2csc(C)n2)cc1S(=O)(=O)Nc1ccc(C(C)C)cc1 | 1.3 | /
O=C(NCc1cccs1)C(=O)NCC(c1ccco1)S(=O)(=O)c1ccc(F)cc1 (stereo not drawn) | 1.5 | /
CC1=C(c2ccccc2)S(=O)(=O)NC1=NCc1ccccc1Cl | -0.33 | -8.9
CC(=N\Nc1ccccc1)/C(Cl)=N\O | / | -0.31
COc1ccc(OC)c(SCc2nnc(-c3ccc([N+](=O)[O-])c(C)c3)o2)c1 | / | -0.56
Clc1cccc(OCCN2CCOCC2)c1 | / | -0.05
CCCc1cc(=O)n2nc(N3CCC(C(=O)N4CCN(C)CC4)CC3)sc2n1 | 2.2 | -1.9
O=C(Nc1ccc2c(c1)oc1ccccc12)NC1CCCCC1 | / | -3.4
Nc1nccnc1C(=O)N/N=C/c1ccc(C(F)(F)F)cc1 | / | -2.3
O=C(c1cc2nc(-c3ccc(F)cc3)cc(C(F)(F)F)n2n1)N1CCOCC1 | -0.33 | /
C=C(C)Cn1c(N2CCCCC2)nc2c1c(=O)[nH]c(=O)n2C | / | -2
CCOc1ccc(CN2CCN(Cc3ccc4c(c3)OCO4)CC2)cc1 | 1.1 | 8.4*
C/C(=N\Nc1nc(C(C)(C)C)cs1)c1ccc(C)nc1 | / | -0.74
COc1ccc(CN2CCN(Cc3ccccc3OC)CC2)cc1Br | -0.16 | 0.91
New compounds follow.
SMILES | HIV TAR-Tat | CDC25B CDK2 inh
CCN1C(=O)C2(/C(=C(/O)c3ccccc3)C(=O)C(=O)N2CCCN(C)C)c2ccccc21 (stereo not drawn) | 0.74 | 1.3
CC1C(=O)N2CCCc3cc(S(=O)(=O)Nc4cccc(Cl)c4)cc1c32 (stereo not drawn) | -0.02 | /
COc1ccccc1N1CCN(S(=O)(=O)c2cn(C)cn2)CC1 | 2 | /
COc1ccc(O)c(C2=NN3C(C2)c2ccccc2OC3c2cccnc2)c1 (stereo not drawn) | -0.5 | -1.9
O=C(c1ccccc1-c1nc(-c2ccccc2)no1)N(Cc1ccco1)CC1CCCO1 (stereo not drawn) | -0.12 | /
CN1CCC(=NOC(=O)Nc2ccccc2)CC1 | / | -1.1
CCCCc1c(N2CCCCC2)nc2n(c1=O)CCCS2 | 0.05 | 0.5

A draw from above in order of heavy-atom count, descending.
SMILES | HIV TAR-Tat | CDC25B CDK2 inh
CCN1C(=O)C2(/C(=C(/O)c3ccccc3)C(=O)C(=O)N2CCCN(C)C)c2ccccc21 (stereo not drawn) | 0.74 | 1.3
O=C(NCc1cccs1)C(=O)NCC(c1ccco1)S(=O)(=O)c1ccc(F)cc1 (stereo not drawn) | 1.5 | /
COc1ccc(O)c(C2=NN3C(C2)c2ccccc2OC3c2cccnc2)c1 (stereo not drawn) | -0.5 | -1.9
COc1ccc(OC)c(SCc2nnc(-c3ccc([N+](=O)[O-])c(C)c3)o2)c1 | / | -0.56
CCOc1ccc(CN2CCN(Cc3ccc4c(c3)OCO4)CC2)cc1 | 1.1 | 8.4*
COc1ccc(CN2CCN(Cc3ccccc3OC)CC2)cc1Br | -0.16 | 0.91
CC1=C(c2ccccc2)S(=O)(=O)NC1=NCc1ccccc1Cl | -0.33 | -8.9
C=C(C)Cn1c(N2CCCCC2)nc2c1c(=O)[nH]c(=O)n2C | / | -2
CCCCc1c(N2CCCCC2)nc2n(c1=O)CCCS2 | 0.05 | 0.5
C/C(=N\Nc1nc(C(C)(C)C)cs1)c1ccc(C)nc1 | / | -0.74
CN1CCC(=NOC(=O)Nc2ccccc2)CC1 | / | -1.1
Clc1cccc(OCCN2CCOCC2)c1 | / | -0.05
CC(=N\Nc1ccccc1)/C(Cl)=N\O | / | -0.31

Screens from PubChem.
